Mtb hypoxia inh: inhibitors of hypoxia-regulated fluorescent reporter in Mycobacterium tuberculosis. AID 1159583. 300,000 tested, 0.1% active. fluorescence inhibition, % (test concentration not listed). M. tuberculosis hypoxia-regulated fluorescent reporter, fluorescence;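 active = 35 to 45% if threefold the growth effect, above 45% if 1.5-fold the growth effect; inactive = the rest, general growth blockers included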;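 note: wells of about 50 µL received 100 nL stock; 0% = vehicle wells and 100% = reference inhibitor wells; whole bacteria with a GFP reporter of the hypoxia response; strong numbers were not always called active; many hits fall short of the cut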
PrP UTR inh: inhibition of PrP 5' UTR reporter expression; 340,000 tested, 0.35% active; cell-based PrP 5' UTR mRNA reporter, plate reader; inhibition, % (test concentration not listed);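 active = every replicate at 50% or more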;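 note: 0 = median of the neutral control wells; tested in H4 reporter cells; numbers are from one replicate; inactives centre near -14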
Autofluor counter: flagged as autofluorescent in microsphere protease counterscreen | compound autofluorescence counterscreen, microsphere flow cytometry; hits give high values | fluorescence intensity (test concentration not listed) | 360,000 tested, 3.1% active | AID 624483;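 active = at least 3 SD above the mean of all compounds, about 16000 in these data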;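 note: 100 nL of 1 mM stock went into each well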
BJeLR lethal: BJeLR cell viability loss | BJeLR (HRASV12) viability, CellTiter-Glo ATP luminescence, 48 h; reference of the scale not given here | inhibition, % (concentration not given with the values) | 300,000 tested, 0.17% active | AID 1554;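 active = replicate mean above 50%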;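 note: 50 nL library stock added to about 25 µL; numbers are from one replicate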
Sa RN4220 lethal: S. aureus RN4220 growth inhibition | OD600, 16 h | inhibition, % (concentration not given with the values) | 330,000 tested, 0.33% active;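 active = z-score of -3 or lower and OD600 up to 0.18 on both plates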;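 note: plate controls were untreated cells for no effect and reference antibiotic for full effect; stock transfer was 100 nL into about 80 µL; one replicate is shown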
Sa ugtP lethal: kills S. aureus RN4220 lacking UgtP. S. aureus RN4220 ugtP deletion, OD600 growth, 16 h; some inactives read as strong as hits. growth inhibition, % (test concentration not listed). 330,000 tested, 0.54% active. AID 1259309;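 active = z-score under -3 and OD600 up to 0.15 on both plates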;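 note: plate controls were untreated wells for no effect and antibiotic for full effect; wells of about 80 µL received 100 nL stock; the first replicate is given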
Mtb hypoxia inh growth: recorded beside Mtb hypoxia inh, whose call it bears; growth inhibition, %; measured here: M. tuberculosis growth (absorbance);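 0% = vehicle and 100% = reference antibiotic; read after six days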
* hit, by the source's call; x = not tested or not shown.

SMILES | Mtb hypoxia inh | Mtb hypoxia inh growth | PrP UTR inh | Autofluor counter | BJeLR lethal | Sa RN4220 lethal | Sa ugtP lethal
O=c1cc(N2CCc3ccccc32)[nH]c(=O)n1Cc1ccc(F)cc1 | 3 | -11 | -17 | 12098 | -3 | 0.0 | 5
COc1ccccc1Nc1ncccc1[N+](=O)[O-] | 1 | 1 | -27 | 3688 | -2 | 8.9 | 1
CN(C(=O)CSc1nc2ccccc2c(=O)n1-c1ccccc1F)C1CCS(=O)(=O)C1 (centres undefined) | 12 | 8 | -6 | 4150 | x | 3.0 | -2
CCCn1ccnc1SCC(=O)Nc1c(C)n(C)n(-c2ccccc2)c1=O | 14 | 10 | -35 | 4233 | x | -0.4 | -1
O=C(Nc1nncs1)C1c2ccccc2Oc2ccccc21 | 7 | 10 | -29 | 6638 | 5 | -0.7 | 12
O=C(NCc1ccncc1)c1ccc(NS(=O)(=O)c2ccc(F)cc2)cc1 | -1 | 2 | -9 | 3047 | x | 4.4 | 4
CCOC(=O)c1c(NC(=O)CN2CCCCC2)sc2c1CCCC2O (centres undefined) | 1 | 11 | -7 | 5079 | -8 | 1.0 | -18
COc1cc2c(cc1OC)C(C)N(C(=O)Nc1ccccc1)CC2 (centres undefined) | 11 | -7 | -47 | 3526 | 25 | 0.9 | 2
Cc1cc(C)cc(N(C(=O)Cn2nnc(-c3ccccc3)n2)C(C(=O)NC2CCCCC2)c2ccccn2)c1 (centres undefined) | 2 | -3 | -11 | 2502 | -25 | 7.5 | 11
Cc1ccc(OCC(=O)c2ccc3c(c2)CCCC3)cc1C | 19 | 7 | -54 | 2153 | -6 | 12 | 33
CSc1nc2c(c(C(F)(F)F)n1)CC(C)CC2 (centres undefined) | 5 | 3 | 2 | 2993 | 5 | 27 | 18
COc1ccc(C(CNC(=O)c2cc3c(s2)CCCC3)N2CCOCC2)cc1 (centres undefined) | 5 | -3 | -18 | 6650 | 7 | 0.3 | 1
CC1(c2nnc(-c3ccncc3)o2)CC(c2ccc(Cl)cc2)=NO1 (centres undefined) | 11 | 11 | 0 | 3455 | -4 | -1.8 | -3
O=C(CSc1ccc(-c2ccc(F)cc2)nn1)NCc1ccco1 | 4 | 12 | 1 | 9284 | -4 | 1.3 | 3
COc1cccc(C(=O)N2CCN(Cc3ccccc3Br)CC2)c1 | 11 | 6 | -50 | 2805 | 2 | 2.1 | 10
Cc1nn(-c2ccccc2)c(C)c1C=O | 1 | -15 | x | x | -11 | -2.5 | -7
CCN(CC(=O)Nc1c(F)cccc1F)C(=O)c1cc(S(=O)(=O)N2CCOCC2)ccc1N1CCCC1 | 5 | 2 | -4 | 5752 | 3 | 2.7 | 3
CCN(Cc1ccccc1)c1ccc(C=NNC(=S)NC(C)C)cc1 | 13 | 6 | x | x | x | -3.2 | 25
C=CCc1cccc(C2Nc3ccccc3C(=O)N2O)c1O (centres undefined) | 2 | 7 | -30 | 3156 | 1 | 12 | -11
CSc1cccc(NC(=O)CN(C)S(=O)(=O)c2cnc[nH]2)c1 | -3 | 5 | -10 | 4102 | -4 | -1.3 | -1
COc1ccc(C(=O)C2CCCN(Cc3ccccn3)C2)c(OC)c1 (centres undefined) | 6 | 6 | -15 | 2738 | 15 | 5.3 | 5
O=S(=O)(c1cccc(Cl)c1)N1CCCC1 | 2 | 0 | -13 | 24145* | 0 | 1.4 | 6
CCC(c1nnc(SCC(=O)NNC(=O)c2ccccc2)n1Cc1ccccc1)N(C)C (centres undefined) | -1 | -1 | -6 | 6551 | -5 | -1.7 | 1
CCOC(=O)CC1C(=O)NCCN1C(=O)c1sc2ccccc2c1Cl (centres undefined) | -11 | -3 | -32 | 2312 | 0 | -0.6 | 5
CC[N+](CC)(CC)CCCCOc1ccc2c(c1)C(=O)c1cc(OCCCC[N+](CC)(CC)CC)ccc1-2 | x | x | -26 | x | 1 | 9.1 | 76
Further structures.
SMILES | Mtb hypoxia inh | Mtb hypoxia inh growth | PrP UTR inh | Autofluor counter | BJeLR lethal | Sa RN4220 lethal | Sa ugtP lethal
CCN(CC)c1ccc(C=NN2CCN(Cc3cccc4ccccc34)CC2)c(O)c1 | 3 | -3 | x | x | x | 3.3 | 20
O=C(OCc1nnc(-c2ccc(Br)cc2)o1)c1cncc(Br)c1 | 2 | 5 | -15 | 3325 | 6 | 4.5 | 4
CCOC(=O)c1ccc(NC(=O)C(=O)NCCc2ccc(OC)cc2)cc1 | 1 | 2 | -17 | 3729 | 3 | -0.6 | 1
CC(C)c1nc(Cl)c(C#N)c2c1CCC2 | 18 | 4 | -6 | 5531 | 0 | 2.7 | 11
CCOc1ccccc1NC(=O)NCc1ccco1 | 9 | 3 | -25 | 4359 | 7 | 6.2 | 0
O=C(N/N=C1\CCS(=O)(=O)c2ccc(F)cc21)c1ccc([N+](=O)[O-])cc1 | x | x | -7 | 3868 | 4 | x | x
CCCCc1cc(=O)oc2c(C)c(OCc3nn[nH]n3)ccc12 | 9 | 3 | -16 | 3679 | -2 | 5.4 | 0
Cc1ccc(C(C)C)c(OCCCN2CC(C)OC(C)C2)c1 (centres undefined) | 0 | 4 | -15 | 2519 | -4 | 12 | 6
CC(=O)Nc1ccc(S(=O)(=O)N2CCNC(=O)C2)cc1 | 10 | 8 | -3 | 3368 | x | 4.6 | 2
CCC(=O)Oc1ccc(NC(=O)c2ccco2)cc1 | 1 | 3 | -9 | 4256 | 4 | 9.8 | 7
CCOC(=O)C(Sc1ncc(C#N)c(N)n1)C(C)C (centres undefined) | 8 | 10 | -33 | 2490 | 1 | 5.7 | 2
CCOc1ccccc1C1CC(=O)Nc2cc(C)c(C)cc21 (centres undefined) | 9 | 9 | -10 | 3238 | 39 | 1.1 | -7
CCOC(=O)c1cc2sccc2n1CC(=O)Nc1ccc(OC)cc1OC | 14 | 11 | -45 | 5498 | 2 | 8.7 | 8
CCOC(=O)C1(Cc2ccccc2Cl)CCN(C(=O)c2cc(C)on2)CC1 | 4 | -4 | -8 | 4828 | 6 | 6.7 | -5
O=C(c1ccc(C(F)(F)F)cc1)N1CCC(=O)N(C(COCc2ccc(C(F)(F)F)cc2)Cc2ccccc2)CC1 (centres undefined) | 6 | 4 | -11 | 3856 | -8 | -11 | -16
COc1ccc(OCCC(=O)OCC(=O)NC2CCCCC2)cc1 | 15 | 12 | -26 | 3672 | x | 3.4 | 7
O=C(NNC(=O)c1csc(N2CCOCC2)n1)c1ccc(=O)[nH]c1 | 3 | 2 | -21 | 3884 | x | -4.5 | -3
CC(C)(C)OC(=O)NCCCC[C@H](NC(=O)c1nc[nH]c1C(=O)NCC(=O)OCc1ccccc1)C(=O)OC(C)(C)C | x | x | -11 | 2843 | 4 | x | x
CC(NC(=O)CN(C)CC(=O)Nc1ccccc1Br)c1ccccc1 (centres undefined) | 8 | 7 | -15 | 8477 | x | 7.3 | 11
O=C1CC(=O)Nc2cc(S(=O)(=O)N3CCN(c4ccc([N+](=O)[O-])cc4)CC3)ccc2N1 | -7 | -3 | -10 | 6324 | 6 | 1.2 | 5
CCc1ccnc(NC(=O)NS(=O)(=O)c2ccc(C)cc2)c1 | 8 | 12 | -12 | 6027 | 1 | 3.5 | 5
N#Cc1c(N)oc(-c2cccs2)c1-c1cccs1 | x | x | -18 | 3034 | -8 | 2.1 | 5
CSc1nnc(N2C(=O)C(O)=C(C(=O)c3ccco3)C2c2ccc(F)cc2)s1 (centres undefined) | 0 | -3 | -26 | 5725 | -6 | 46 | 2
O=C(CN1CCN(c2cccc(Cl)c2)CC1)Nc1nccs1 | -1 | -5 | -4 | 2520 | 8 | 6.2 | 0
CN1CCN(c2nc(-c3cccs3)nc3ccccc23)CC1 | 6 | 7 | 6 | 3421 | -1 | 4.8 | 3

Limited to Sa ugtP lethal, for 5 of the compounds above:
| SMILES | Sa ugtP lethal |
| --- | --- |
| CCOC(=O)C(Sc1ncc(C#N)c(N)n1)C(C)C (centres undefined) | 2 |
| CCOc1ccccc1C1CC(=O)Nc2cc(C)c(C)cc21 (centres undefined) | -7 |
| CCOC(=O)c1cc2sccc2n1CC(=O)Nc1ccc(OC)cc1OC | 8 |
| CCOC(=O)C1(Cc2ccccc2Cl)CCN(C(=O)c2cc(C)on2)CC1 | -5 |
| O=C(c1ccc(C(F)(F)F)cc1)N1CCC(=O)N(C(COCc2ccc(C(F)(F)F)cc2)Cc2ccccc2)CC1 (centres undefined) | -16 |

The listing continues:
SMILES | Mtb hypoxia inh | Mtb hypoxia inh growth | PrP UTR inh | Autofluor counter | BJeLR lethal | Sa RN4220 lethal | Sa ugtP lethal
C/C(=N\NC(=O)Cc1cccn1C)c1cccs1 | x | x | -30 | 2400 | -3 | x | x
O=C(OCC(=O)N1CCc2ccccc2C1)c1cccc([N+](=O)[O-])c1 | x | x | -2 | 2059 | -2 | x | x
O=C(OCC(=O)N1CCN(c2ccccc2)CC1)c1cc(Br)ccc1Cl | -2 | -1 | -20 | 2965 | x | -1.9 | -3
COCCNC(=O)C(=O)c1cc(C)n(-c2ccc([N+](=O)[O-])cc2)c1C | 2 | 9 | -33 | 9437 | -6 | 5.8 | 8
O=C(O)[C@@H]1CCCN1C(=O)CCc1c[nH]c2ccccc12 | 10 | 9 | -52 | 3921 | 0 | 0.1 | 8
C=CCn1c(-c2ccc([N+](=O)[O-])cc2)n[nH]c1=S | 8 | 4 | 0 | 1959 | -8 | 5.0 | 11
Cc1c(C(=O)NC2CC(=O)N(c3ccc4c(c3)OCCO4)C2)cccc1[N+](=O)[O-] (centres undefined) | 4 | 3 | 3 | x | -3 | 4.6 | 11
Cc1cc(C)cc(C(=O)NCC(=O)OCC(=O)Nc2cccnc2Cl)c1 | 3 | 8 | -35 | 3338 | -5 | 2.3 | 12
O=C(c1cccs1)N1CCN(c2cccc(Cl)c2)CC1 | 1 | 10 | -17 | 3405 | -1 | 8.6 | 15
CC(NC(=O)CCNS(=O)(=O)c1cccc2nonc12)c1ccccc1 (centres undefined) | -6 | 6 | -13 | 5925 | -19 | 1.9 | 3
COC(=O)c1sccc1NC(=O)c1cccnc1 | 4 | 5 | -10 | 3129 | 1 | 4.1 | 1
Cc1cc(NS(=O)(=O)c2ccc(-c3ccccc3)cc2)no1 | 8 | -7 | -11 | 3935 | 8 | 24 | -16
CC(=NNc1ccccn1)c1ccc(N2CCOCC2)cc1 | 14 | 8 | x | x | x | 13 | 6
O=C(NC1=NCCS1)C1CCCCC1 | 9 | 10 | -14 | 4017 | 2 | 12 | 5
Cc1ccc(C(=O)Nc2cccc(O)c2)cc1S(=O)(=O)N1CCCCCC1 | -3 | -3 | -27 | 2933 | -19 | -1.9 | -5
CN(C)c1nn(C(=O)Nc2cccc(C(F)(F)F)c2)cc1-c1ccccc1 | -3 | 13 | -30 | 10112 | 4 | 1.4 | -32
O=C(Nc1ccc2oc(-c3cccc4ccccc34)nc2c1)c1ncn[nH]1 | x | x | -96 | 2914 | 4 | 6.8 | 1
Cc1sc(-c2ccncc2)nc1OC(=O)c1cc(Cl)cc(Cl)c1 | 9 | 4 | -10 | 3297 | 5 | 1.7 | -4
CC(=O)c1ccc(NC(=O)/C(=C\c2ccc(F)cc2)NC(=O)c2ccco2)cc1 | 15 | 6 | -21 | 5250 | 3 | 1.7 | 5
COc1ccc(N2C(=O)c3ccccc3NC23CCCC3)cc1 | 2 | 5 | -35 | 3776 | 1 | 0.9 | 7
COc1cc(-c2nc(-c3ccc(Br)o3)no2)cc(OC)c1OC | -3 | 1 | -27 | 6149 | 9 | -0.6 | -20
Nc1cc(-c2ccc(OC(F)(F)F)cc2)nn1-c1ccc(Cl)c(Cl)c1 | 12 | 10 | x | x | -2 | 26 | 22
CN(C)CCCN(C(=O)COc1ccccc1)c1nc2c(Cl)cccc2s1 | 17 | 11 | -18 | 5233 | 13 | 0.3 | -6
COc1ccc(COc2cc(-c3cccc(OC)c3)nc3ccc(NC(=O)C(C)C)cc23)cc1 | 5 | 3 | -4 | 3823 | 2 | 37 | -14

Of the compounds above, these have a cyano group.
SMILES | Mtb hypoxia inh | Mtb hypoxia inh growth | PrP UTR inh | Autofluor counter | BJeLR lethal | Sa RN4220 lethal | Sa ugtP lethal
CC(C)c1nc(Cl)c(C#N)c2c1CCC2 | 18 | 4 | -6 | 5531 | 0 | 2.7 | 11
CCOC(=O)C(Sc1ncc(C#N)c(N)n1)C(C)C (centres undefined) | 8 | 10 | -33 | 2490 | 1 | 5.7 | 2
N#Cc1c(N)oc(-c2cccs2)c1-c1cccs1 | x | x | -18 | 3034 | -8 | 2.1 | 5
